# Assay outcomes: PubChem, Fisher Drug Discovery Resource Center
# NPYLR7 ag: activates Aedes aegypti NPYLR7 receptor; HEK293T NPYLR7/Galpha15, GCaMP6s calcium fluorescence; activation, % at 10 µM; 270,000 tested, 0.15% active; AID 1259423; in the data active means activation above about 40%;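 further: 0% = vehicle and 100% = reference agonist at the receptor; some compounds past the cut are filed as inactive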
# NPYLR7 ag max-min: also measured in NPYLR7 ag; calls as there; activation, %; measured here: Max-Min RFU normalised activation; some inactives read as strong as hits;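 span of the calcium signal over five minutes; 0% = vehicle and 100% = native peptide agonist; compound fluorescence can raise it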
# The depositor's hits bear a star; & = joins results of further samples. The list is partial; the hit share may differ from the screen's.
# Under each structure – NPYLR7 ag	NPYLR7 ag max-min
- CC1CCC(NC(=O)Cn2nnc(-c3ccco3)n2)CC1 (stereo not drawn)
→ 9.5	3.1
- COc1cc(NC(=O)c2scc(-c3ccccc3)c2-n2cccc2)cc(OC)c1
→ 7.2	6.7
- c1nc(N2CCCC(Nc3ccc4c(c3)OCCO4)C2)c2cc[nH]c2n1 (stereo not drawn)
→ 19.6	8.7
- Cc1nnc(SCc2ccc(C(=O)NCc3ccc(F)cc3)cc2)n1-c1cccc(Cl)c1
→ 13.3	3.9
- Cc1ccc(/C=N\Nc2nc3c(c(=O)[nH]c(=O)n3C)n2C(C)C)cc1
→ -3.4	-2.4
- Cc1ccccc1CSc1nnc2ccc(-c3ccncc3)nn12
→ -12.7	-5.8
- Cc1ccc(-c2cn[nH]c2C2CCCN(C(=O)c3cnc4ccccn34)C2)cc1 (stereo not drawn)
→ 0.5	0.4
- CC(C)c1cc(C(=O)O)nn1-c1ccncc1
→ -4.4	-3.8
- O=C(CSCc1ccccc1Cl)N1CCS(=O)(=O)CC1
→ 3.2	-6.9
- CCS(=O)(=O)N(C)C1CCN(Cc2cccc(N(C)C)c2)CC1
→ 5.6	5.4
- Cc1nnc2sc(C(=O)NCCc3ccc(F)cc3)c(N)c2c1C
→ 7.3	3.3
- CN(C)CCC(=O)C12CC3CC(CC(C3)C1)C2
→ 3.5	1.6
- COCCO[C@H]1[C@H](NC(=O)C(C)C)c2ccccc2C12CCN(C(=O)CCc1cccs1)CC2
→ 8.5	-3.4
- N#Cc1cc([N+](=O)[O-])cn(Cc2c(F)c(F)c(F)c(F)c2F)c1=O
→ -3.2	-9.0
- CC(C)(C)SCC(=O)Nc1cccc(S(=O)(=O)N2CCCC2)c1
→ -8.3	-5.8
- O=C(Cc1c[nH]c2ccccc12)NN1C(=O)C2C(C1=O)[C@H]1C=C[C@@H]2C1 (stereo partly drawn)
→ -4.6	-11.6
- COc1ccc(-c2nc(CSc3nnnn3C)cs2)cc1OC
→ 25.7	24.1
- OC(c1ccccc1)c1nc2ccccc2s1 (stereo not drawn)
→ 3.0	0.4
- O=C(CCn1cccn1)N1CCCC(CO)(Cc2ccccc2)C1 (stereo not drawn)
→ -6.6	-10.4
- COCCN(Cc1nc2cc(Cl)ccc2o1)C(=O)c1ccccc1OC
→ -2.5	-12.6
- CCOC(=O)c1nn(-c2ccc(C)cc2)c(=O)cc1N1CCN(c2ccccc2F)CC1
→ 10.2	5.2
- CC(=O)N(c1ccccc1)c1nc(C=C2N=C(c3cc(C)cc(C)c3)OC2=O)cs1
→ 0.3	4.6
- O=c1oc2c3c(ccc2cc1-c1ccccc1)OCN(CCCN1CCOCC1)C3
→ 12.5	17.2
- O=C(CCCNC(=O)c1ccc(F)cc1F)Nc1ccccc1I
→ -2.1	-2.4
- COCC(=O)N1CCN(c2nc(C)nc(C)c2Cc2ccccc2F)CC1
→ -0.5	-0.3
- C[C@@H]1CN(C(=S)Nc2cc(Cl)ccc2Cl)C[C@H](C)O1
→ -3.1	-8.2
- CCOC(=O)C1(Cc2ccc(Cl)cc2)CCN(Cc2ccon2)CC1
→ 4.0	0.1
- COCCNC(=O)c1ccc(CSc2nnc(-c3ccco3)n2-c2ccccc2C)cc1
→ -7.5	1.6
- C=CCN(Cc1nccn1Cc1ccc(Cl)cc1Cl)C(=O)CC
→ 3.7	11.7
- Cc1ccc(S(=O)(=O)CCNCC(=O)Nc2ccc(C)cc2C)cc1
→ 6.7	5.7
- CCOC(=O)c1c(C)[nH]c(C(=O)OCC(=O)N(C)C2CCS(=O)(=O)C2)c1C (stereo not drawn)
→ 3.8	3.2
- C=C(C)COc1ccc(-c2ncncc2-c2ccc(OC)cc2)c(O)c1
→ -1.4	-6.5
- OCC1(CCCc2ccccc2)CCN(Cc2ccc3nonc3c2)CC1
→ 9.4&12.2	8.2&16.1
- CNCC(=O)NCc1cnc(-c2cccc(OC)c2)s1
→ -1.0	23.8
- COCCn1c(=O)c2c(nc3n2CC(C)CN3c2ccccc2C)n(C)c1=O (stereo not drawn)
→ 1.2	-2.0
- COC(=O)c1ccc(CN2CCN(c3cccc(Br)c3)C(=O)C2C)cc1 (stereo not drawn)
→ 18.0	16.6
- CCn1cc(NC(=O)NC)c2ccccc21
→ -0.3	-1.8
- CCCCS(=O)(=O)NC(=O)C1(C)CCN1C(=O)C/C=C/c1ccccc1 (stereo not drawn)
→ -0.5	-3.1
- CS(=O)(=O)NCCC(=O)N1Cc2cnc(-c3ccccc3)nc2C1
→ 15.1	-0.2
- CC(=O)c1ccc(NC(=O)Cc2csc(-c3cccc(F)c3)n2)cc1
→ 17.2	14.7
- CCS(=O)(=O)Oc1cccc(CN(C(=O)c2ccc([N+](=O)[O-])cc2Cl)C(C)C)c1
→ -3.5	7.5
- CCc1nc2ccc(C(=O)NCCCn3ccnc3)cn2c1N(C)Cc1ccncc1
→ 5.9	-7.7
- COc1cc(CCNC(=O)CCl)ccc1OC(F)F
→ 1.2	0.4
- O=C(Nc1ccccn1)c1c(O)c2ccccc2[nH]c1=O
→ 2.6	0.2
- O=C(NCCN1CCCCCC1=O)C1CC(c2ccc(Cl)cc2Cl)=NO1 (stereo not drawn)
→ -0.3	6.7
- Cc1ccc(-n2ncc3c(C(C)C)nn(CC(=O)N(C(C)C)C(C)C)c(=O)c32)cc1C
→ 6.0	4.2
- Cc1ccc2c(c1)C(CC(=O)N(CCCO)Cc1ccc(C)s1)C(=O)N2 (stereo not drawn)
→ 2.3	-2.3
- COCCNC(=O)C(C1CCCC1)N1CCN(C(=O)c2ccc(OC)cc2)CC1 (stereo not drawn)
→ -0.7	5.4
- CC(OC(=O)c1cnc2c(cnn2C(C)C)c1)C(=O)NC(C)(C)C (stereo not drawn)
→ 0.7	0.6
- NC(=O)Cn1c(SCc2ccc(OC(F)(F)F)cc2)nnc1C1CC1
→ 9.2	7.1

# Further entries follow.
# Under each structure – NPYLR7 ag	NPYLR7 ag max-min
- Cn1cc(C(F)(F)F)nc1-c1ccc(OCC(O)CNCCOc2ccc(O)c(C(N)=O)c2)cc1 (stereo not drawn)
→ -0.5	-25.4
- Cc1cccc(-n2ccc3nc(N4CCOCC4)ncc3c2=O)c1
→ 3.6	1.4
- C=CCOC(=O)C1C(C)=Nc2nc(SCCCC)[nH]c(=O)c2C1c1ccc(F)cc1 (stereo not drawn)
→ 2.0	0.6
- Cn1cc(C(=O)Nc2nc3ccccc3s2)c2nn(-c3ccccc3)c(=O)c-2c1
→ 8.0	7.7
- CC[C@H](C)C(=O)N(C)CCc1ccc(OC)c(OC)c1
→ -5.9	-17.1
- COC(=O)c1ccccc1Nc1ncnc(N)c1[N+](=O)[O-]
→ 16.7	21.5
- Nc1nc2n(n1)C(c1ccccc1)CC(c1ccccc1)=N2 (stereo not drawn)
→ 22.5	20.2
- Cc1nn2c(NCC3CCCO3)cc(C(C)C)nc2c1-c1ccccc1 (stereo not drawn)
→ -0.8	14.7
- CS(=O)(=O)c1oc(-c2cccs2)nc1S(=O)(=O)c1ccc(F)cc1
→ 2.6	0.1
- CCCCc1[nH]nc2ccnc(-c3ccc(OC)nc3)c12
→ 6.2	5.4
- COc1cc(C(=O)N2CCN(C)CC2C)cc(Cl)c1OC(C)C (stereo not drawn)
→ 10.2	13.0
- COC(=O)c1ccc(NC(=O)CSc2ccc3nnc(-c4ccc(OC)c(OC)c4)n3n2)cc1
→ 3.0	14.0
- Cn1c(=O)c2c(-c3cccnc3)c(NCc3ccccc3)oc2n(C)c1=O
→ -3.1	-4.7
- COc1cc(NC(=O)CSc2nccn2C(C)C)cc(OC)c1OC
→ -1.7	-4.4
- CN1CCN(c2cc(OCCNC(=O)Nc3ccc(F)c(F)c3)ncn2)CC1
→ -1.9	-3.2
- CCOc1nc(-c2ccccc2F)n(-c2ccc(NC(=O)c3ccc(F)cc3)cc2)n1
→ 8.6	12.5
- COc1cccc(Cc2nsc(N3CCCN(C(=O)c4ccc(C(F)(F)F)cc4)CC3)n2)c1
→ 12.7	14.0
- CCCN1C(=O)CCc2cc(NC(=O)COC)ccc21
→ 2.2	-3.7
- CCNC(=O)N1CCN(c2cc(Cl)nc(SCC(=O)N3CCC(C)CC3)n2)CC1C (stereo not drawn)
→ 1.6	6.3
- COc1ccc(C(=O)C(C#N)=Cc2cc(OC)cc(OC)c2)cc1
→ -1.2	-1.6
- CCOC(=O)c1cc(-c2cccc(OC)c2)n(-c2ccc(C(=O)NCc3ccco3)cc2)n1
→ -0.4	-3.4
- CO[C@@H]1C[C@@H]2CC(C)(C)OC[C@@]2(O)[C@H]1N(C)CCCN(C)C
→ 3.5	9.3
- O=C(c1ccc(SC(F)(F)F)cc1)N1CCc2ccccc2C1c1ccc(F)cc1 (stereo not drawn)
→ -1.3	4.9
- CO[C@H]1CN(S(C)(=O)=O)[C@H]2CC[C@@H](O)[C@H]1C2
→ 2.4	7.4
- Cc1ccc(-n2nc(-c3ccc(F)cc3)cc2C(=O)NCc2ccc(F)cc2)cc1
→ 5.4	5.7
- CN(C)C1CCCN(C(=O)CCc2nc(-c3ccco3)no2)CC1 (stereo not drawn)
→ 0.1	-2.8
- N=c1oc2ccc3ccccc3c2cc1C(=O)Nc1ccccc1F
→ -3.8	-7.3
- COCCN(Cc1nc2sc3c(c2c(=O)[nH]1)CCC(C)C3)CC(O)COc1ccc(Cl)cc1 (stereo not drawn)
→ -2.4	13.6
- CC(C)(C)NS(=O)(=O)c1cc(C(=O)N2CCC2)ccc1Cl
→ -5.9	-6.7
- COc1ccc(CN(C)Cc2cccc3cnccc23)c(OC)c1OC
→ -4.9	-8.2
- O=C(/C=C\c1ccc2c(c1)OCO2)NCc1cc(-c2cc3ccccc3o2)on1
→ 1.5	1.3
- COCCN(CCOC)C(=O)C1CCCCN1S(=O)(=O)c1ccc(C)cc1 (stereo not drawn)
→ -5.5	-7.5
- Cc1cc(NC(=O)NCc2ccc(Cl)cc2Cl)no1
→ -1.8	-1.3
- O=C(c1ccn[nH]1)N1CCCC(CCc2cccc(C(F)(F)F)c2)C1 (stereo not drawn)
→ 11.6	10.3
- CCCCc1ccc(C(=O)N(CCOC)Cc2cccc(OS(=O)(=O)CC)c2)cc1
→ -5.8	0.0
- O=C(CNC(=O)c1cccs1)NCc1cccs1
→ 8.4	7.2
- COc1ccc2nc(-c3ccc(C)c(NS(=O)(=O)c4ccccc4Cl)c3)cn2n1
→ -13.6	-19.0
- COc1cccc(Cn2cccc2CN(Cc2ccc(C)cc2)C2CC2)c1
→ -0.8	2.4
- CCN(Cc1nc2cc(Cl)ccc2c(=O)[nH]1)C(=O)CC(NC(C)=O)c1ccc(C)cc1 (stereo not drawn)
→ 17.2	16.1
- COc1ccc2o/c(=N\NC(=O)c3ccc(Br)cc3)c(-c3nc4ccccc4[nH]3)cc2c1
→ -6.8	-13.7
- CCC(C)N(Cc1cccc(OS(=O)(=O)c2ccc(F)cc2)c1)C(=O)c1cccc(F)c1 (stereo not drawn)
→ 2.6	8.0
- O=C(c1c(F)c(F)c(F)c(F)c1F)N1CCC(c2nc(-c3ccc(Cl)cc3)no2)CC1
→ 5.1	0.9
- O=C(NNC(=O)C12CC3CC(CC(C3)C1)C2)C1CC2C=CC1C2 (stereo not drawn)
→ -4.0	-6.8
- C=CCNC(=O)Cn1cc(OC)c(=O)cc1CN1CCN(c2ccccc2)CC1
→ -1.9	-2.1
- CC1CCN(C(=O)C(NC(=O)Nc2ccccc2Br)c2ccccc2)CC1 (stereo not drawn)
→ 3.9	2.7
- S=c1[nH]n(Cc2ccccc2)c(=NCc2ccccc2)s1
→ 1.4&4.6	-0.7&2.3
- C=CCOc1c(I)cc(/C=N\NC(=O)COc2nc(C)c(Br)c(COC)c2C#N)cc1OC
→ 22.1	18.0
- CC(=O)O[C@]1(C(C)=O)CC[C@H]2[C@@H]3C[C@H](C)C4=CC(=O)CC[C@]4(C)[C@H]3CC[C@@]21C
→ -1.4	-6.3
- Cc1nc2sccn2c1C(=O)N(C)C(C)c1ccon1 (stereo not drawn)
→ 20.0	10.7
- CCCN(Cc1c(CC)nn(-c2ccc(F)cc2)c1N1CCN(C(C)C)CC1)C(=O)c1ccccc1OC
→ -2.7	12.4

# Some of these compounds in order of formula weight, descending.
# Under each structure – NPYLR7 ag	NPYLR7 ag max-min
- C=CCNC(=O)Cn1cc(OC)c(=O)cc1CN1CCN(c2ccccc2)CC1
→ -1.9	-2.1
- O=C(NNC(=O)C12CC3CC(CC(C3)C1)C2)C1CC2C=CC1C2 (stereo not drawn)
→ -4.0	-6.8
- Cc1nc2sccn2c1C(=O)N(C)C(C)c1ccon1 (stereo not drawn)
→ 20.0	10.7

# Next part.
# Under each structure – NPYLR7 ag	NPYLR7 ag max-min
- CN(C)CCN(C(=O)CS(=O)(=O)c1ccc(Cl)cc1)c1nc2c(F)cccc2s1
→ -0.6	-5.4
- C=C(C)Cn1c(=O)c2c(nc3n(-c4cc(Cl)ccc4C)c(C)c(C)n23)n(C)c1=O
→ 0.0	-0.3
- COc1ccc(NC(=O)CC(=O)N2CCN(CCO)CC2)c(OC)c1
→ -8.6	-12.3
- CCOC(=O)N1CCC(NCC2(c3cccc(F)c3)CCOCC2)CC1
→ 15.1	0.6
- CCN(CC)C(=O)Nc1ccc(C(C)NC(C)=O)cc1 (stereo not drawn)
→ 4.1	3.0
- O=C(CC1C(=O)NN=C2c3ccccc3N=CN21)Nc1ccccc1F (stereo not drawn)
→ 7.0	5.3
- Cc1ccc(Nc2cc(C)nc(-n3nc(C)cc3C)n2)c(C)c1
→ 5.1	6.4
- COCCCN(Cc1nc2scc(-c3cccc(Cl)c3)c2c(=O)[nH]1)CC(O)c1ccccc1 (stereo not drawn)
→ -7.3	6.2
- CCOC(=O)C(c1ccc(Cl)cc1)N1CCN(CC(N)=O)CC1 (stereo not drawn)
→ 11.1	9.3
- O=C(NCCc1ccccc1)C1=COC2=NC(=O)N(Cc3ccccc3C(F)(F)F)CCN12
→ -1.5	-2.2
- CS(=O)(=O)N1CCN(C(=O)CN2CCSc3ccccc32)CC1
→ -0.2	-2.2
